UCH37 DUB inh: blocks the human deubiquitinase UCH37; inhibition, % (test concentration not listed); 330,000 tested, 0.33% active; Q9Y5K5; AID 588478; purified proteasome/UCH37, Ub-AMC cleavage fluorescence;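 active means mean of two replicates above 20%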;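 further: 0% = compound-free wells with enzyme and 100% = wells lacking proteasome; stock transfer was 100 nL into about 20 µL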
Target sequence (Q9Y5K5 whole entry, looked up): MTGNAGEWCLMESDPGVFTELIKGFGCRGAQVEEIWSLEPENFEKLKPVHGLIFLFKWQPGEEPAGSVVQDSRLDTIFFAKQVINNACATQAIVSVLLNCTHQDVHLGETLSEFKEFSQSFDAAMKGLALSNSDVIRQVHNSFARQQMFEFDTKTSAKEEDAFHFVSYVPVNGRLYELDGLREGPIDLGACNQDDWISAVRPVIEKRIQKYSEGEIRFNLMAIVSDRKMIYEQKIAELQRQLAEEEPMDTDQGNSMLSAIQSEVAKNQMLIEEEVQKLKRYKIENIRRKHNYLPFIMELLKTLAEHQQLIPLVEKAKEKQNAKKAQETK
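Schedule: 30 min plus 25 min, room temperature / Material: human UCH37 within purified proteasomes / Technique: AMC fluorescence intensity at 355/460 nm / Buffer or medium: pH 7.4 Tris-HCl (50 mM) with ovalbumin, ATP-MgCl2, DTT / Controls: wells without proteasome as full block, compound-free enzyme plus substrate as uninhibited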
E coli growth: inhibitors of Escherichia coli growth | OD600, 23 h; active compounds read low | OD600 absorbance (concentration not given with the values) | AID 1053175 | 330,000 tested, 0.21% active;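 active means OD600 absorbance below the run mean of sample wells minus 3.6 SD, in any replicate, cut at about 0.56 in these data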;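 further: stock transfer was 300 nL into about 60 µL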
A1 inh: inhibitors of the anti-apoptotic protein A1, read as caspase activation. caspase activation, % (no concentration beside the values). MEF A1-2A-BIM cells, Caspase-Glo 3/7 luminescence, 3 h; percent of clofoctol response, vehicle zero. 330,000 tested, 0.066% active. AID 2462;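 active means over half of replicate activation scores above 10%, or exactly half above 10 with the replicate mean above 10; inconclusive means replicate mean below 10 yet half the replicates above 10; inactive means over half of replicates below 10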;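 further: wells of about 30 µL received 50 nL stock; many hits fall short of the cut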
HNF4A DNA FP: change in binding of human HNF4 alpha to DNA; AID 1224865; 360,000 tested, 0.3% active; HNF4a-FITC DNA binding, fluorescence polarization, 1 h; activity change, % at 10 µM; in the data active means activity change above about 30%, passing the limit was not always enough;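 further: controls were the assay level and a saturating level of protein; the project sought stronger binding though the title names inhibitors; some compounds called inactive have numbers as strong as hits; positive values seem to mean higher polarization but the record does not say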
B2AR ag: activates human beta-2 adrenergic receptor causing internalization. P07550. Am2.2-beta2AR cells, FAP receptor internalization, flow cytometry; reference of the scale not given here. response, % (concentration not given with the values). 340,000 tested, 0.43% active;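 active means response above a set limit, near 3 SD of response in nonfluorescent compounds, cut at about 42% in these data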;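 further: stock transfer was 100 nL into about 11 µL; a reference agonist was the positive control; negative values mostly stem from fluorescent compounds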
Target sequence (P07550 whole entry, looked up): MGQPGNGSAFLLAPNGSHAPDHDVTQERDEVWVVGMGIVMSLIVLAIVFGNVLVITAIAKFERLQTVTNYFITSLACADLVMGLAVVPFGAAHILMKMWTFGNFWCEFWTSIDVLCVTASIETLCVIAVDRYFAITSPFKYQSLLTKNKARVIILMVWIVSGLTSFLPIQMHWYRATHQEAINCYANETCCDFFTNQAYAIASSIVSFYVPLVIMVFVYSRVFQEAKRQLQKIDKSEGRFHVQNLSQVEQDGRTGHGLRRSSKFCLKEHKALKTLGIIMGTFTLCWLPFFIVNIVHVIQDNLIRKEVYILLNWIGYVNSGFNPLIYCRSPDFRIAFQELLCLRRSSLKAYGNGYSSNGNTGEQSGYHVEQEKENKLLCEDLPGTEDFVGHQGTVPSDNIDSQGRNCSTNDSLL
LANA-H2B inh: blocks KSHV LANA binding to histone H2A/H2B; Q9QR71; cell-free LANA-H2A/H2B peptide, fluorescence polarization; inhibition, % (concentration not given with the values); AID 2629; 320,000 tested, 0.6% active; in the data active means inhibition mostly above about 10%, no sharp cut-off; inactive means mostly below about 6.7%;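 further: stock transfer was 7.5 nL into about 10 µL; 0% = median of vehicle wells and 100% = median of positive control wells; one replicate is shown; the record names a cut of 25% in any replicate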
Vif A3G: inhibitors of Vif binding to APOBEC3G peptide, primary screen, biochemical, TR-FRET, GST-Vif 1-94, biotin-A3G peptide, dose response retest (AID 1117319). inhibition, %, or IC50 in µM where a hit was titrated. TR-FRET GST-Vif / biotin-A3G peptide binding; higher % means a stronger effect; test concentration not given here; strong numbers were not always called active. 260,000 tested, 0.57% active;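 active means above the screen mean plus three standard deviations and confirmed in dose response; inconclusive means results disagree or hit not tested in dose response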;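 further: Vif residues 1-94 fused to GST binding biotinylated APOBEC3G peptide 110-148; 0% = full assay without inhibitor and 100% = GST in place of GST-Vif; retest series ran down from 100 µM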
Numbers without * were called inactive; u = inconclusive; x = no result given. Compounds were not picked by outcome; overall some 2.1% were active at least once.

molecule	UCH37 DUB inh	E coli growth	A1 inh	HNF4A DNA FP	B2AR ag	LANA-H2B inh	Vif A3G
CC(=NCCCn1ccnc1)c1c(O)n(Cc2ccccc2)c(=O)[nH]c1=O	1.5	0.65	1.0	0.7	0.7	3.9	2.9%
O=C1C=C(O)c2c(O)cc(O)c(O)c2C1=O	11.7	0.771	1.6	-56.5	-6.8	5.2	x
O=C(COC(=O)Cc1ccccc1[N+](=O)[O-])Nc1nnc(-c2ccccc2)o1	1.5	0.617	1.0	-1.7	2.8	1.6	8.4%
O=c1c2ccccc2nc2sc3ccccc3n12	-5.5	0.764	-7.2	1.8	-8.2	-1.5	0.2%
CCOc1ccc(S(=O)(=O)Nc2ccc(C(=O)N3CCCC3)cc2)cc1C(N)=O	5.8	0.733	0.7	-3.4	-6.3	0.3	x
COc1ccc(OC)c(S(=O)(=O)N(C)CC(=O)Nc2cc(Cl)ccc2OC)c1	1.6	0.757	0.3	4.0	-5.4	0.0	u
CCN(C(=O)Cn1c(Cl)nc2c1c(=O)n(C)c(=O)n2C)C1CCCCC1	2.3	0.658	0.6	-0.1	-0.3	2.6	x
Cc1n[nH]c(=O)c2c(NC(=O)CSc3nnnn3-c3ccc(O)cc3)oc(C)c12	-0.6	0.691	-0.4	-0.3	-4.2	-2.2	-3.3%
C#CC[N+]1(CC#Cc2ccc(C#CC[N+]3(CC#C)CCOCC3)cc2)CCOCC1	-0.3	0.701	-0.3	7.2	13.8	-3.6	-0.2%
O=C(CCS(=O)(=O)c1cccs1)Nc1ccc(C(=O)NCc2ccccc2)cc1	0.5	0.651	-0.9	1.5	7.8	-1.8	73.0%
N#CC1=C(N)OC2=C(C(=O)CCC2)C12CCN(C(=O)OCc1ccccc1)CC2	2.7	0.69	-0.4	0.8	-1.4	-3.0	8.2%
O=c1[nH]c2cccc(F)c2n2cccc12	3.1	0.619	0.5	1.3	17.0	1.1	-1.7%
CN(C(=O)c1ccno1)c1nnc(-c2cccnc2)s1	-4.6	0.69	0.4	1.5	-7.7	-1.0	2.1%
CC(C)(C)C(=O)Nc1ccc(S(=O)(=O)Nc2nccs2)cc1	3.3	0.679	1.0	-1.3	7.1	-0.8	-3.3%
COc1cccc(NC(=O)COC(=O)c2c(NC(C)=O)sc(C)c2C)c1	2.6	0.72	-0.2	2.2	5.8	5.0	-11.3%
COC(=O)C(Cc1ccccc1)NC(=O)C(CC(C)C)NC(=O)OC(C)(C)C (stereo unspecified)	0.0	0.633	1.2	0.6	2.5	-0.1	3.5%
Cc1ccc(NC(=O)c2ccco2)c(NC(=O)COc2ccccc2)c1	6.2	0.679	0.3	0.8	12.3	-1.3	x
O=C(CCN1CCN(c2ccccc2)CC1)Nc1ccc(Cl)cc1	1.6	0.659	-0.1	0.4	1.5	0.0	-0.8%
O=C(CCc1ccccc1)NCC(=O)N/N=C/c1ccc(O)cc1O	x	x	0.2	1.9	9.0	3.3	3.7%
C[C@@H]1CCC(=O)N(CC[C@H](Oc2ccccc2)c2ccccc2)CC1	4.4	x	-0.2	1.8	-4.4	1.1	x
O=C(O)CCC(CNS(=O)(=O)c1ccccc1)C(F)(F)F (stereo unspecified)	5.2	0.727	-0.8	-2.9	13.0	-3.3	0.4%
CCN(C(=O)c1nn(-c2ccc(OC)cc2)c(=O)c2c1c1ccccc1n2C)c1ccc(OC)cc1	1.5	0.69	1.2	2.9	-0.3	0.8	-8.6%
CCOc1ccccc1NC(=O)C(NCC1CCCCC1)c1ccccc1 (stereo unspecified)	-2.9	0.664	0.5	0.1	3.1	-2.5	-7.5%
O=C(/C=C/c1ccccc1)Nc1nnc(-c2ccco2)o1	-7.1	0.701	-0.2	-1.2	0.5	-5.0	-1.9%
COC(=O)c1ccccc1SC(CC(=O)c1ccccc1)c1ccc(F)cc1 (stereo unspecified)	4.8	0.724	-0.3	1.3	5.3	5.8	-9.5%
O=C(CCCCCNc1nc(=S)[nH]c2ccccc12)NCc1ccccc1Cl	3.1	0.712	-0.1	x	x	0.5	-6.3%
COc1ccc(N2CCN(C(=O)c3cn(C)c(=O)c4c3c3ccccc3n4C)CC2)cc1	-3.0	0.743	0.4	-4.6	0.4	-0.4	21.1%
COc1ccc(CN(C)CC(=O)NC(=O)Nc2ccccc2F)cc1	4.0	0.648	x	-0.2	3.1	x	-1.3%
Cn1c(-c2sc3cc(C(F)(F)F)cnc3c2-c2ccccn2)n[nH]c1=S	2.1	0.724	-0.1	0.6	-15.4	-5.9	-11.7%
CC1=NN(Cc2ccccc2)C(=O)C1	4.0	0.666	0.7	0.3	-9.5	2.8	u
COc1ccc(Cl)cc1NC(=O)C1CSC(c2ccncc2)=N1 (stereo unspecified)	2.7	0.674	x	0.3	-2.3	0.1	32.9%
O=Cc1ccc(C(=O)O)cc1	1.8	0.657	0.3	0.6	-7.3	-8.0	x
Cc1ccc(CNC(=O)C2CCC(=O)N2CCc2ccccc2)cc1 (stereo unspecified)	-2.5	0.734	0.2	0.9	-2.3	-6.2	0.5%
Cc1c(Cl)cccc1NC(=S)N1CCN(C(=O)c2ccco2)CC1	4.5	0.69	-0.6	1.4	0.9	-1.3	x
CSc1ncccc1C(=O)OCC(=O)NC1CC1	2.2	0.635	x	6.9	-6.5	x	1.5%
O=C(OCC(=O)N1CCc2ccccc21)c1cncc(Br)c1	2.9	0.69	0.8	-0.4	-3.7	-0.8	x
Cc1ccc(-c2nnc(NC(=O)C3=COCCO3)o2)c(C)c1	3.0	0.627	-0.2	2.7	-7.1	x	4.7%
CCOc1ccc(N(CC(=O)NN=C2CCN(C)CC2)S(C)(=O)=O)cc1	1.1	0.724	0.7	0.0	6.4	1.2	x
O=C(COC(=O)C1COc2ccccc2O1)Nc1cccc(F)c1 (stereo unspecified)	4.5	0.668	0.1	-2.5	-5.0	0.8	x
Cc1ccnc(NCc2ccc(Br)cc2)c1	-1.8	0.624	0.2	-1.0	-8.7	1.2	-3.3%
CC1(C)CC(NC(=O)c2cccc(S(=O)(=O)Nc3cccc(Cl)c3)c2)CC(C)(C)N1	3.2	0.692	x	2.2	-3.7	x	x
CC(=O)c1ccc(OCCCC(=O)NCCc2ccc(C(F)(F)F)cc2)cc1	0.1	0.624	-0.3	-3.2	6.7	-5.9	x
COC(=O)CCC(=O)N(CCN(Cc1ccccc1)C(=O)CCC(=O)OC)Cc1ccccc1	6.0	0.653	1.3	-0.5	9.4	2.4	x
COC(=O)c1ccc(OC(=O)C2CC(=O)N(c3cccc(C)c3)C2)cc1 (stereo unspecified)	0.0	0.677	u	1.1	9.6	-1.2	-2.7%
CO/N=C/C(=N\Nc1ccc(OC)cc1)C(=O)c1ccc(F)cc1	x	x	0.4	-3.4	-2.3	0.7	-0.1%
Cc1nc2ccc(NC(=O)c3ccc(S(=O)(=O)N(C)C)cc3)cc2s1	1.0	0.614	1.0	-2.9	3.5	-1.5	16.5%
COCCN(CC(=O)Nc1ccccc1)S(=O)(=O)c1ccc(S(=O)(=O)N2CCCC2)cc1	-0.8	0.744	-0.1	0.3	-1.4	-0.8	u
CC1CCc2c(sc(NC(=O)c3ccccc3C(=O)O)c2C#N)C1 (stereo unspecified)	1.3	0.707	-1.9	4.2	-8.8	0.9	1.2%
CCc1ccc[n+](-c2[nH]c(=O)sc2/C=N/N=C(\[O-])CCn2c3ccccc3c3ccccc32)c1	x	x	-0.2	-3.2	-9.1	-3.4	-0.1%
CCCC[C@@H]1C=C(C(=O)O)[C@H](c2ccc(Cl)cc2)N1S(=O)(=O)c1ccc(C)cc1	0.6	0.705	-0.8	-3.6	3.4	84.4*	-4.1%
CC(C)(C)n1nnnc1C(c1cccc(C#N)c1)N1CCN2CCCC2C1 (stereo unspecified)	2.5	0.717	-0.2	3.3	0.9	11.0	-5.7%
CCOc1ccc(NC(=O)Cc2ccc(NC3=NC4CS(=O)(=O)CC4S3)cc2)cc1 (stereo unspecified)	3.8	0.787	x	0.3	-13.7	-5.0	x
COc1cccc(C(=O)N2CCN(Cc3ccco3)CC2)c1OC	2.6	0.68	2.4	-4.1	14.8	-5.2	6.8%
Cc1cc(C(F)F)n2nc(C(=O)Nc3ccc(S(=O)(=O)N4CCCC4)cc3)nc2n1	2.1	0.727	0.5	-0.4	-3.7	-3.9	1.2%
C1CCC(n2nnnc2CN2CCN(C3CCCC3)CC2)CC1	3.7	0.724	-0.2	-3.4	6.4	x	11.8%
COc1cc2cc(CCOC(=O)c3ccc(F)cc3)oc(=O)c2cc1OC	0.1	0.671	1.0	1.4	-5.7	2.3	x
COc1ccc(C(=O)CSc2cc(C)nc(SCC(=O)c3ccc(C)cc3)n2)cc1	5.1	0.757	-0.2	1.7	-1.2	2.4	x
Cc1cc(C(=O)CCl)c(C)n1CCc1ccc(F)cc1	4.1	0.668	0.5	4.3	-6.6	-4.0	x
COC(=O)c1ccccc1NC(=O)N1CCN(c2ccccc2)CC1	4.7	0.691	1.4	1.1	23.0	-0.1	19.1%
CC(=O)Nc1nonc1-c1nc2ccccc2n1Cc1ccccc1	-16.4	0.715	-2.0	6.3	-6.0	2.6	-14.2%

Further results
molecule	UCH37 DUB inh	E coli growth	A1 inh	HNF4A DNA FP	B2AR ag	LANA-H2B inh	Vif A3G
CC(C)c1ccc(NC(=O)N2CCN(S(=O)(=O)c3ccccc3)CC2)cc1	-0.3	0.735	-0.6	2.4	1.4	8.4	14.1%
COCC(=O)N(Cc1cc2ccccc2[nH]c1=O)c1ccccc1OC	0.2	0.711	0.6	-1.1	-5.7	3.5	-6.7%
CCOc1ccc2[nH]c(=O)c(CN(CCCN3CCOCC3)C(=O)Nc3ccc(F)cc3)cc2c1	4.5	0.707	x	6.0	1.7	x	x
Cn1c(=O)c2ncn(CC(=O)NCCOc3ccc(C(C)(C)C)cc3)c2n(C)c1=O	0.1	0.691	x	1.3	-5.9	x	-3.1%
CC(C)N(Cc1nccn1C)C(=O)c1cc(COc2cccc(C(F)(F)F)c2)on1	3.9	0.698	0.9	0.6	3.2	-1.4	x
O=C(Cn1nc(-c2ccc(Cl)cc2)ccc1=O)NCCCN1CCN(Cc2ccccc2)CC1	2.2	0.608	0.4	0.6	-9.4	0.7	25.6%
CCOC(=O)C1=C(C)N=c2s/c(=C/c3cccc([N+](=O)[O-])c3O)c(=O)n2C1c1ccc(OC)cc1OC (stereo unspecified)	x	x	0.0	7.5	18.9	-4.2	5.7%
c1ccc(-c2cc3cc4c(cc3cn2)OCO4)cc1	x	x	-12.7	-0.5	-7.9	1.0	x
CCc1ccc(CCC(=O)Nc2sc(C)c(C)c2C(=O)OC)o1	-3.0	0.752	-0.2	-3.0	-3.9	-2.4	31.0%
OCCN1CCN(CC#CCC(c2ccccc2)c2ccccc2)CC1	6.8	0.643	0.2	4.8	4.0	4.7	x
CCc1ccc(-c2nc(C)c(CCO)c(=O)[nH]2)cc1	0.7	0.654	0.4	2.0	-2.5	-5.9	-0.9%
COCCOC(=O)C1=C(C)NC(=O)NC1c1ccco1 (stereo unspecified)	2.2	0.676	0.0	-2.5	11.5	1.4	u
Cc1ccc(C(=O)CC2(O)C(=O)N(CN3CCOCC3)c3ccccc32)cc1 (stereo unspecified)	3.5	0.792	-0.4	-1.1	-2.4	3.4	-1.1%
CN(C)CCN1C(=O)c2oc3ccc(F)cc3c(=O)c2C1c1ccncc1 (stereo unspecified)	-1.4	0.696	1.3	3.0	4.7	0.1	3.5%
